Source: PubChem (National Center for Advancing Translational Sciences (NCATS))
ClpP mod = qHTS Assay for Activators of ClpP; ATP-dependent Clp protease proteolytic subunit (Bacillus subtilis (strain 168)), P80244; Potency, µM (doses to about 57.5 µM), without a hit: at the highest dose activity change, negative = active; purified B. subtilis ClpP, FRET peptide cleavage, 20 min; AID 651965, 2013; hit rate 1.9% among 340,000; active = well fitted falling curve with a large enough effect; inconclusive = small, poorly fitted or top-dose-only effect; inactive = no such curve, though single readings can be large or run the other way; also: potency is read from the fitted curve at half-maximal effect; the source files actives as falling curves though it sought activators and does not explain the sign; nearly all actives have a fitted effect of over 65% in size; many hits overshoot -100%
Target sequence (P80244 whole entry, looked up): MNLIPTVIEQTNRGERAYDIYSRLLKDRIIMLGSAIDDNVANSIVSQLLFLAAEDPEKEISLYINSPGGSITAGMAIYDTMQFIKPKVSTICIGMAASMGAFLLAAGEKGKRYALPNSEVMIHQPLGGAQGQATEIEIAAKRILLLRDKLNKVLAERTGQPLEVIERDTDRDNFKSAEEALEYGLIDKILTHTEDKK
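ClpP 10 microg/mL final, pH 8 Tris/KCl buffer with BSA, glycerol, Tween-20; compound pinned in; FRET-FV substrate; RT 20 min; Ex320/Em430; ΔFRET vs ADEP 5.8 microM, DMSO, no enzyme.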
Sfp PPTase inh = qHTS Assay for Inhibitors of Bacillus subtilis Sfp phosphopantetheinyl transferase (PPTase); AID 1490, 2009; 4'-phosphopantetheinyl transferase ffp (Bacillus subtilis), Q9F4F7; Potency, µM, for inactives: max response, negative = inhibition, actives largely listed as inhibitors; hit rate 3.5% among 310,000; Biochemical Sfp PPTase activity, qHTS; active = well fitted inhibition curve with a large enough effect; inconclusive = small, poorly fitted or top-dose-only effect, or another doubt; inactive = no such curve, though single readings can be large or run the other way;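 also: the enzyme is Sfp with the accession as filed and its product quenches rhodamine fluorescence; potency is read from the fitted curve at half-maximal effect; 0% = enzyme reaction without inhibitor and -100% = no enzyme wells; top concentration of the series not given in the record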
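After 15 min at room temperature with compound, 15 nM Sfp received 5 uM rhodamine-CoA plus 12.5 uM BHQ-2-ybbR (50 mM Hepes pH 7.6, 10 mM MgCl2). Rate came from the fluorescence difference over 30 min, ex 525/em 598 nm.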
gsp antagonist = qHTS for Antagonists of gsp, the Etiologic Mutation Responsible for Fibrous Dysplasia/McCune-Albright Syndrome: qHTS; gsp-mutant cells, cAMP HTRF, 30 min; control for the full effect not named in the record; Potency, µM (highest dose often 76.9 µM), inactives show at the top dose activity change, negative = inhibition, hits mostly inhibitors; hit rate 0.4% among 340,000; active = falling curve of any shape with a large fitted effect; inconclusive = falling curve, mostly with a smaller effect; inactive = flat or rising curve; cell line not stated here;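 also: intracellular cAMP measured with PDE inhibitor Ro 20-1724 present during compound exposure; potency is read from the fitted curve at half-maximal effect; % is scaled to controls: 0 for no effect and ±100 for the full control effect; nearly all actives have a fitted effect of over 65% in size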
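Cells in G418 medium, seeded 16-24 h, 37C; buffer exchange to DPBS + 1 mM CaCl2, 0.5 mM MgCl2, 0.05% BSA; cpds in DMSO + […] (300 uM stock), 30 min 37C; HTRF cAMP detection.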
Menin MLL FP FL = qHTS Assay for Inhibitors Targeting the Menin-MLL Interaction in MLL Related Leukemias: Competition With Fluorescein Labeled MLL-derived Peptide. Fluorescence polarization, fluorescein-MLL peptide displacement from menin. FP activity change, % at 61.4 µM. 290,000 tested, under 10 active. AID 1766, 2009; inconclusive = falling polarisation curve, or a change in total fluorescence; inactive = total fluorescence flat and polarisation flat or rising; no compound was filed as active; the % refers to the polarisation; negative = inhibition;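 also: % of control where 0% means no effect; inhibitors lower the polarisation; unlabelled MLL peptide was the positive control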
TRPML1 blocker = qHTS for Inhibitors of the Human Mucolipin Transient Receptor Potential 1 (TRPML1) | Mucolipin-1 (Homo sapiens), Q9GZU1 | TRPML1-inducible cells, Ca2+ dye fluorescence, FDSS; active compounds read low; inhibition of EC80 agonist-evoked calcium signal | activity change, negative = inhibition, % (no concentration beside the values) | hit rate 0.02% among 390,000; in the data active means activity change below about -50%; inconclusive means about -30% to -50%; inactive means above about -30%;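 also: stimulus is agonist 54-4 at its EC80 concentration; % is scaled to controls: 0 for no effect and ±100 for the full control effect; compound concentration not given in the record; the text of the record puts the active cut at -80%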
Target sequence (Q9GZU1 whole entry, looked up): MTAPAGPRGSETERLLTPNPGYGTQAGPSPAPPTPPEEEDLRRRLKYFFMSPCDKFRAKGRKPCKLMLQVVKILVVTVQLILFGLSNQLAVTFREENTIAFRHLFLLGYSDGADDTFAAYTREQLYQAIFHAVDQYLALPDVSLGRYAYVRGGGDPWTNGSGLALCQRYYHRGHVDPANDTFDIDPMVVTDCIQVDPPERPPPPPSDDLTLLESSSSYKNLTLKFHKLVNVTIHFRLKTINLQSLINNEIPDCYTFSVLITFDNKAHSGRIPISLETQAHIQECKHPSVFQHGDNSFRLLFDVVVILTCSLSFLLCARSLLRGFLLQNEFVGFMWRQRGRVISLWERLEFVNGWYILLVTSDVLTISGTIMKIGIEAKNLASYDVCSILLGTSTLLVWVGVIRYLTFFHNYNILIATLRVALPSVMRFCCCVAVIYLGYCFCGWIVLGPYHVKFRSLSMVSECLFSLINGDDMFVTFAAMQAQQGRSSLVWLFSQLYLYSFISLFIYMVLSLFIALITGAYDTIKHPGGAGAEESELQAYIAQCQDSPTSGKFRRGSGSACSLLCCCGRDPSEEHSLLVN
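Calcium fluorescence in TRPML1-DL cells induced overnight with Tet: a 110 s read after compound pin addition, then a 110 s antagonist read after challenge with 54-4 at 4 uM final (EC80).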
gsp ag = qHTS for Agonist of gsp, the Etiologic Mutation Responsible for Fibrous Dysplasia/McCune-Albright Syndrome: qHTS | gsp mutant cells, cAMP HTRF, 30 min; control for the full effect not named in the record | Potency, µM (series often up to 76.9 µM), for the others: at the highest dose activation (cAMP increase), actives largely listed as activators | hit rate 0.13% among 340,000 | AID 624287, 2012; active = well fitted activation curve with a large enough effect; inconclusive = small, poorly fitted or top-dose-only effect, or another doubt; inactive = no such curve, though single readings can be large or run the other way; cell line not stated here;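 also: phosphodiesterase inhibitor Ro 20-1724 added with compounds to block cAMP breakdown; potency is read from the fitted curve at half-maximal effect; nearly all actives have a fitted effect of over 60% in size; about a fifth of the inactives were tested at one dose only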
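Cells in DMEM/10% FBS with G418 were pretreated with compounds in DMSO plus […] (300 uM stock) for 30 min at 37C. cAMP was measured by HTRF (cAMP-d2 plus anti-cAMP antibody-K) after 30 min at room temperature.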
TRPV1 PAM = HTS Assay for Compounds that Act as Potentiators of the Vanilloid Receptor 1 | Transient receptor potential cation channel subfamily V member 1 (Homo sapiens), Q8NER1 | TRPV1-expressing cells, Fluo-8 calcium influx, capsaicin EC20 potentiation; host cell line not named in the record; control for the full effect not named in the record | AID 540277, 2011 | hit rate 0.02% among 320,000 | potentiation, % at 8.33 µM; active means potentiation above 80%; inconclusive means 30% to 80%; inactive means below 30%; also: 0% is about no effect
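Fluo-8 calcium influx in TRPV1-expressing cells, kinetic read (ex 480/em 520 nm). Compound added and read 3 min for agonist activity, followed by capsaicin at EC20 final and 2 min further read for enhancement.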
* marks the source's active call; other numbers are inactive results; u = inconclusive; x = not tested or not shown; & = joins results of further samples; [ ] = dose if it differs, or a comment. Not all compounds are listed; rates above refer to the full screens.

SMILES | ClpP mod | Sfp PPTase inh | gsp antagonist | Menin MLL FP FL | TRPML1 blocker | gsp ag | TRPV1 PAM
CC(C)(C)NC(=O)NC(=O)CN1CC=C(c2ccccc2)CC1 | -12% | 2% | -5% | -2.5 | -6 | -51%[inhibitor] | 2
CCOC(=O)C(O)(c1ccc(N=Cc2ccccc2O)c(C)c1)C(F)(F)F (stereo not given) | 0.0% | -1% | 2% | 3.2 | 28 | u | -2
COC(=O)C1=C(c2c(C)noc2C)C[C@@H]2CC[C@H]1N2C(=O)NCC1CC1 | -1.3% | x | -2% | x | 14 | u | 7
Cc1ccc(C(O)(C(=O)NNC(=O)CN2CCN(C)CC2)c2ccc(C)cc2)cc1 | x | -5% | -8% | 2.6 | 12 | 35%[15.4 µM] | -8
COc1ccc(/C=N\N=C(N)N)cc1 | x | 13% | 13% | -3.7 | 7 | -2%[15.4 µM] | u
Oc1ccc(CC2CC3CCN2CC3)cc1O (stereo not given) | -25% | -30% | 5% | -0.6 | -5 | 1% | 7
Cn1cc(C(=O)OCC(=O)NC2CCCC2)c2ccccc21 | -0.4% | x | -6% | x | 26 | 16% | -6
COC(=O)c1cccc(NC(=O)c2ccc(S(=O)(=O)N(C)c3ccccc3OC)cc2)c1 | -8.7% | x | x | x | -3 | u | x
CCOP(=O)(C1=C(O)C(=O)C(C(C)(C)C)=CC1=O)c1ccccc1 (stereo not given) | x | 40µM* | 12% | -3.5 | 1 | 1%[15.4 µM] | 4
CCC(=NCCCN1CCOCC1)c1c(O)n(-c2ccccc2C)c(=O)[nH]c1=O | 1.4% | 12% | 13% | 0.7 | -4 | -77%[inhibitor] | 2
Cc1ccc2nc(N3CCN(C)CC3)[nH]c2c1 | -2.9% | 7% | 14% | -0.8 | 26 | 8% | 0
COc1ccc(CCn2c(O)c(C=NCCCn3ccnc3)c(=O)[nH]c2=O)cc1OC | -1.1% | 16% | 8% | 0.6 | 14 | 8% | 9
COC1C(OC(=O)c2ccc(C)[nH]2)C(O)C(Oc2ccc3c(O)c(NC(=O)c4ccc(O)c(CC=C(C)C)c4)c(=O)oc3c2Cl)OC1(C)C (stereo not given) | 0.2% | 9% | u | 4.2 | x | x | -1
Cn1c(O)c(Cc2ccc(OCc3ccccc3)cc2)c(=O)n(C)c1=O | 1.7% | 0% | 7.1µM* | -11 | 6 | -7% | 6
CCCNC(=O)N1CCC2(CC1)OCCO2 | x | 27% | 12% | 2.9 | 20 | -32%[inhibitor] | 0
COc1ccc2c3c1O[C@H]1C[C@@H](O)C=C[C@@]31CCN(C)C2 | -0.6% | -5%&11%&26% | 5% | 2.8&2.9&-9.8 | 7 | x | -7
O=C1OC(c2ccc([N+](=O)[O-])cc2)=N/C1=C/N1CC2CC(C1)c1cccc(=O)n1C2 (stereo not given) | -2.5% | 22% | -4% | u | -23 | 1% | 5
CN(C(=O)Oc1cccc2ccccc12)C1C=CCC1 (stereo not given) | x | x | -10% | x | -11 | 5% | x
COC(=O)C1=C(c2ccc(OC)c(OC)c2)C[C@@H]2CC[C@H]1N2C(=O)NC1CC1 | 0.9% | x | -2% | x | -7 | x | -13
CC(=O)Nc1nc(CCl)cs1 | x | -6% | 16% | -1.1 | -12 | -20% | 5
COC(=O)C1C=C2c3cccc4[nH]cc(c34)CC2N(C)C1 (stereo not given) | x | u | x | u | x | x | -9
O=c1[nH]c(=O)n(-c2cccc3ccccc23)c(O)c1/C=N/N1CCCCC1c1cccnc1 (stereo not given) | -19% | 11% | 0% | u | 17 | -17% | -1
O=C(c1cn(Cc2ccccc2)c2ccccc12)C1CC1 | 0.5% | -8% | 2% | 0.1 | 11 | 12%[15.4 µM] | -21
COCCCOc1ccnc(CS(=O)c2nc3ccccc3[nH]2)c1C (stereo not given) | -4.4% | 50µM* | 3% | 1.0&-1.6 | -4 | x | -6
COC(=O)[C@]1(C)C[C@H]1[C@H](NP(=O)(c1ccccc1)c1ccccc1)c1ccccc1 | 0.2% | -1%&14% | -1% | 4.8&-5.2 | 21 | x | -12
c1ccc(-c2ccc(C(c3ccccc3)n3ccnc3)cc2)cc1 (stereo not given) | 0.7% | u | -30% | 4.1&1.0&-3.4 | 4 | x | 17&-3
Cc1ccc(C)c(NC2=NCCCS2)c1 | -1.3% | 10% | 10% | 4.5 | -5 | -21% | 28
CCCCOC(=O)c1ccccc1C(=O)OCc1ccccc1 | -0.2% | x | -17% | x | -4 | x | -3
COc1ccc(CCCc2nnc(SCC(=O)Nc3ccc(C)c(C)c3)o2)cc1 | -1.4%&-2.9% | 2% | u | -1.0 | 8&19 | 25% | -9
CCCCCCNc1nc(OC)nc(N2CC3CC(C2)c2cccc(=O)n2C3)n1 (stereo not given) | x | 8% | -2% | -0.6 | -7 | -27% | -3
CN1CC(C(=O)c2ccc(Cl)cc2)C(c2ccccc2)C1 (stereo not given) | -0.1% | 3% | 0% | -0.6 | 20 | u | 2
Cc1ccc2c(c1)C1CN(C)CCC1N2C(=O)Nc1cccc(Cl)c1 (stereo not given) | 0.2% | 8% | 3% | -5.1 | 27 | 32% | -14
COc1ccccc1-n1c(O)c(C=NCCN2CCNCC2)c(=O)[nH]c1=O | -3.0% | -12% | 6% | 7.7 | -2 | 8% | 8
COc1ccc(OCC(=O)N2CCN(Cc3ccc4c(c3)OCO4)CC2)cc1 | -1.6% | 26% | 3% | 0.3 | 14 | -9% | -5
O=C(c1ccccc1)C(CN1CCCC1)c1ccccc1 (stereo not given) | 648% | -22% | -4% | 7.2 | -9 | 6% | 28
COc1ccc(CN2CCN(C(=O)COc3cccc(C)c3)CC2)c(OC)c1 | -7.1% | -23% | 0% | 6.9 | -3 | 0% | -9
O=C1N=NC2=C1c1c3ccccc3c(O)n1CC2 | x | 15% | u | -17 | 15 | 12% | 6
CCCCn1c(=O)[nH]c(=O)c2c1nc(-c1ccc(OC(F)F)c(OC)c1)n2C | x | 14% | 8% | 4.3 | 10 | 11% | 13
CSc1ncc(CN2CCCC(C(=O)c3ccccc3SC)C2)cn1 (stereo not given) | 0.6% | 14% | 3% | -0.6 | -20 | 9% | 18
Clc1ccc(OCC#CCN2CCCC2)cc1 | x | -20% | 11% | 0.3 | -12 | 8% | u
N/C(=N\[N+](=O)[O-])N1CCN(C(=O)c2ccccc2)CC1 | x | 19% | 5% | 0.8 | -8 | 6% | u
CCOP(=O)(OCC)C(NC(=O)c1ccccc1)C(Cl)(Cl)Cl (stereo not given) | -3.4% | 2% | 11% | 7.2 | -5 | -4%[15.4 µM] | 9
N#Cc1c(N2CCNCC2)nc(-c2ccco2)c2c1CCCC2 | x | 11% | 13% | 3.3 | -7 | u | -3
COC(=O)C1=C(c2ccccc2OCc2ccccc2)C[C@@H]2CC[C@H]1N2C(=O)NCCOc1ccccc1Cl | -3.1% | x | -11% | x | 53 | 9% | -4
CCc1ccc(N2C(=O)NC(=O)/C(=C\c3cccn3CCOc3ccc(C(C)C)cc3)C2=O)cc1 | 2.7% | 5% | 3% | 20 | 24 | -17% | -1
Cn1c(O)c(C=NCCCNC2CCCCC2)c(=O)n(C)c1=O | -1.3% | 2% | 5% | -1.6 | 8 | 23% | -3
N#Cc1ccc(OCC(=O)N2CCN(Cc3ccc4c(c3)OCO4)CC2)cc1 | -0.4% | 6% | 8% | 1.8 | -12 | 7%[15.4 µM] | -7
CCOc1c(Cl)cc(CNCCc2c[nH]c3ccccc23)cc1OC | 1.3% | 56µM* | 11% | 0.6 | 12 | -5% | -14
Cc1ccc(-n2c(/C=C/c3ccc4c(c3)OCO4)nc3ccccc3c2=O)cc1 | x | u | x | 6.2 | x | x | -5
Nc1cc(C(=O)Nc2ccccc2F)ccc1N1CC2CC(C1)c1cccc(=O)n1C2 (stereo not given) | -30% | x | x | x | -1 | -43%[inhibitor] | x
CCC1(C(=O)c2ccc(C)cc2)C2c3ccccc3OC(=O)C21C(=O)O (stereo not given) | x | 17% | 4% | -0.2 | -6 | -7%[15.4 µM] | -11
O=[N+]([O-])c1ccc(N2CCCC(C(F)(F)F)C2)c2ccncc12 (stereo not given) | x | -7% | u | 1.2 | 11 | -13%[15.4 µM] | -5
CC1CN(CC(=O)c2ccccc2Cl)CC(C)O1 (stereo not given) | x | -9% | 5% | -0.6 | 2 | -5%[15.4 µM] | -18
Cc1cccc(CN2CCCC(C(=O)c3cccc(OC(C)C)c3)C2)n1 (stereo not given) | -2.8% | 16% | -3% | -2.0 | -7 | 12% | 4
Cc1ccc(C(C)C)c(OCC(=O)N2CCN(Cc3nc4cc([N+](=O)[O-])ccc4n3C)CC2)c1 | -1.4% | 4% | 3% | 2.2 | 13 | -59%[inhibitor] | -11
CC1(C)CCCN1CCC(C(N)=O)(c1ccccc1)c1ccccc1 | x | x | 13% | x | 1 | 0% | x
COC(=O)C1=C(c2c(C)noc2C)C[C@@H]2CC[C@H]1N2C(=O)N1CCCC1 | 0.3% | x | 6% | x | -3 | -18% | -5
COC(=O)c1ccc(CC(C(=O)c2ccccc2)N(C)C)cc1 (stereo not given) | -5.9% | 0% | 1% | u | 30 | -3% | -8
COc1cc2c(c(OC)c1OC)-c1ccc(O)c(=O)cc1[C@@H](NC(C)=O)CC2 | -4.9% | -27% | 13% | u | -10 | x | x
CCOc1ccc(C2SCC(=O)Nc3c2c(C)nn3C2CCOC(C)(C)C2)cc1 (stereo not given) | 0.1% | 9% | -7% | -0.7 | 8 | 1% | 12
